# Hsc70: Hsc70 inhibitors, probe displacement, primary screen, biochemical, fluorescence polarization (AID 568) | Hsc70 fluorescence polarization, probe displacement; higher % means a stronger effect; strong numbers were not always called active | 83,000 tested, under 10 active | Heat shock cognate 71 kDa protein (Homo sapiens) | displacement, % at 20 µM; hits with a dose series show IC50 in µM;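 active = displacement above 50% without optical interference and an IC50 on retest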;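 note: ATPase domain with a fluorescein-tagged ATP probe; 0% = vehicle and 100% = excess ADP; read after one hour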
# WNV protease inh: inhibitors of WNV NS2B-NS3 protease, primary screen, biochemical, fluorogenic substrate. fluorogenic substrate Ex360/Em465; active compounds read low. z-score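 (tested at a level between 10 and 100 µM)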. 65,000 compounds, 0.18% hits;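 active = z-score at -3 or under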;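 note: score is relative to mean and spread of the compound wells of a plate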
# Target sequence (P06935 1371-1501 limits assumed): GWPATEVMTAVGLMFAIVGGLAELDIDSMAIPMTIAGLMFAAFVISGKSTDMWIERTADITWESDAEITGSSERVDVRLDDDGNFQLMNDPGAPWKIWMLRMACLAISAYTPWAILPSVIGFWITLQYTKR
# Target sequence (P06935 1502-1679 limits assumed): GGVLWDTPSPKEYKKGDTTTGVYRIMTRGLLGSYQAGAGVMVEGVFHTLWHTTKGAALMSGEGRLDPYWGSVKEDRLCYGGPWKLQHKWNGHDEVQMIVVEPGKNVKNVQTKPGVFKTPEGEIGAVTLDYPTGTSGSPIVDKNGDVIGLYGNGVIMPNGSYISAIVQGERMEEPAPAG
# MT1-MMP reporter: inhibitors of MT1-MMP promoter transcription, cell-based, luciferase reporter, luminescence (AID 618); calls from a first round at 10 µM; hits with a dose series show EC50 in µM; 87,000 compounds, 0.62% hits; MT1-MMP promoter luciferase reporter cells, luminescence;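 active = over half of the reporter light lost at 10 µM or EC50 under 50 µM; inactive = the rest and hits that failed the dose series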;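 note: actives suppress MT1-MMP promoter-driven transcription so potencies describe inhibitors; HT1080 fibrosarcoma cells; overnight exposure; toxic or luciferase-blocking compounds were not removed from the actives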
# An asterisk follows results filed as active; i = inactive; / = not tested or not shown. These rows are one share of the data, so the mix of outcomes need not match the whole.
Structure | Hsc70 | WNV protease inh | MT1-MMP reporter
O=C(CSc1nnc(-c2ccccc2)o1)Nn1cnnc1 | -2.1% | 0.71 | i
CCOC(=O)/C(C#N)=C\C1=C(N2CCCC2)CC(C)(C)OC1 | 4.5% | / | i
COCCN(C(=O)C(F)(F)F)C(C(=O)NC1CCCCC1)c1ccco1 (stereo unspecified) | 1.6% | -0.56 | i
Cc1ccc2c(c1)NC(=O)C(CC(=O)Nc1ccc(CN3CCC(C)CC3)cc1)O2 (stereo unspecified) | 0.0% | 0.77 | i
COc1ccc(C(=O)NC2(C(F)(F)F)N=C3SCCN3C2=O)cc1 (stereo unspecified) | -7.3% | 1.4 | i
Cn1c(SCC(=O)N2CCCc3ccccc32)nnc1-c1ccccc1 | -7.5% | -0.81 | i
N#Cc1ccc(NC(=O)N2CCC(c3nc4c(nnn4Cc4cccc(Cl)c4)c(=O)[nH]3)CC2)cc1 | -0.7% | -0.19 | i
COc1cc2ccc(=O)oc2c(O)c1OCC=C(C)C | -0.1% | 0.35 | i
CCOC(=O)c1c(C)[nH]c(C(=O)COC(=O)c2ccc(N3CCCC3=O)cc2)c1C | 5.1% | -0.2 | i
Cc1noc(C)c1CSc1nnc2scc(-c3ccccc3)n12 | 1.8% | 0.4 | i
Cc1csc(NC(=O)CSc2nnc(CCNC(=O)c3cccs3)n2C)n1 | 2.0% | / | i
COC(=O)c1ccccc1NC(=O)CN1CCC(NC(=O)c2ccc(C)cc2)CC1 | -4.2% | -0.7 | i
CCOc1ccc(-n2c(SCC(=O)NCc3ccco3)nc3c([nH]c4ccccc43)c2=O)cc1 | 2.2% | / | i
O=C(CNS(=O)(=O)c1ccc(F)cc1)N1CCN(c2ccccc2)CC1 | 2.0% | -0.38 | i
CCOc1ccc2nc(NC(NC(=O)CC)(C(=O)OC)C(F)(F)F)sc2c1 (stereo unspecified) | 3.1% | 0.31 | i
COc1ccc(CNC(=O)c2noc3c2CCCCC3)cc1 | -9.3% | 0.58 | i
COc1ccc(/C(O)=C2/C(=O)C(=O)N(CCN(C)C)C2c2ccc(OC)c(OC)c2)c(C)c1 (stereo unspecified) | -1.0% | -1.1 | i
CCn1c(=O)n(CC(=O)N2CCN(c3ccccc3F)CC2)c(=O)c2ccccc21 | -1.8% | -0.42 | i
CCCCCCCCN1C(=O)C(O)=C(C(C)=O)C1c1ccccn1 (stereo unspecified) | 2.3% | / | i
COc1cccc(OCCOCCN(C)CCO)c1 | -1.6% | 0.07 | i
CCOc1nnnc2c1sc1nc(N3CCOCC3)c3c(c12)CCCC3 | -0.7% | / | i
CCN=C(Nc1cccc(F)c1)SC1CC(=O)N(c2ccc(OC)cc2)C1=O (stereo unspecified) | -4.1% | -0.7 | i
CCCCN(CCCC)c1ccc(C(=O)c2ccccc2C(=O)O)c(O)c1 | 3.6% | / | i
COC(=O)c1ccc(CSc2nc3ccccc3[nH]2)o1 | -2.2% | / | i
CC(=O)Nc1ccc(S(=O)(=O)NCC2CCC(C(=O)N3CCN(c4ccccn4)CC3)CC2)cc1 (stereo unspecified) | 6.6% | 0.84 | i
O=C(O)CCc1ccc(-c2cccs2)n1NC(=O)c1ccccc1Br | -4.6% | 0.04 | i
CCN1CCN(S(=O)(=O)c2cc(OC)ccc2OC)CC1 | 4.9% | 0.65 | i
O=C(NCCc1ccccc1)C(=O)NCC1CCCO1 (stereo unspecified) | 3.2% | / | i
CCS(=O)(=O)N1CCN(Cc2nc3ccccc3c(=O)[nH]2)CC1 | 6.2% | 0.61 | i
O=C(CN1CCOCC1)N1CCCc2c1c(=O)oc1ccc(OCc3ccccc3)cc21 | 4.1% | 0.73 | i
CCOC(=O)c1cnc(-n2nc(C)cc2C)nc1NCc1ccc2c(c1)OCO2 | -7.9% | 0.89 | i
O=C(NCCc1ccccn1)c1ccc(S(=O)(=O)N2CCCCCC2)cc1 | 11% | 0.28 | i
Cn1nnnc1SCC(=O)N1CCCc2ccccc21 | -0.4% | / | i
O=C1C=C(O)CC(c2ccco2)C1 (stereo unspecified) | 3.2% | -0.36 | i
Cc1ccc(C(=O)O)c(C(=O)Nc2nc(C)cs2)c1 | -10% | -0.09 | i
O=C(CSc1ccc(Cl)cc1)c1ccco1 | -7.2% | 1.5 | i
COCc1nn2c(N)c(C#N)cnc2c1-c1ccccc1 | -5.0% | 0.31 | i
C/C(N)=C(/C#N)C(=O)CSc1nnnn1-c1ccc(C)cc1C | 11% | -1.9 | i
CCOC(=O)c1c[nH]c2c3c(ccc2c1=O)CCCC3 | -3.3% | -1.4 | i
CCc1nc2ccccc2c(=O)n1NC(=O)c1c(O)c2ccccc2[nH]c1=O | -1.2% | -0.85 | i
Cn1c(-c2c(N)n(CCc3ccccc3)c3nc4ccccc4nc23)nc2ccccc21 | -7.9% | / | i
Cc1cc(NC(=O)c2oc3ccccc3c2C)ccc1-n1cnnn1 | -4.3% | -5.5* | i
NCCCN1CCOCC1 | 7.5% | / | i
COC(=O)c1[nH]c2cc(OC)ccc2c1NC(=O)c1ccc2c(c1)OCO2 | 1.5% | -5.6* | i
COCc1cc(C)nc2sc(C(=O)OC(C)C)c(N)c12 | -1.5% | -1.6 | i

# The listing continues.
smiles | Hsc70 | WNV protease inh | MT1-MMP reporter
Cc1ccc(C)n1-c1sccc1C(=O)O | 7.4% | / | i
CCOC(=O)N1CCC(Nc2c(N3CCN(c4cccc(C(F)(F)F)c4)CC3)c(=O)c2=O)CC1 | 0.6% | 1.1 | i
CN(C)CC/C=C1/c2ccccc2Sc2c(O)cc(Cl)cc21 | -1.7% | / | i
COC(=O)c1sccc1NC(=O)c1ccoc1C | -5.6% | 0.48 | i
CC(C)CNS(=O)(=O)c1ccc(CCC(=O)N2CCN(Cc3ccccc3)CC2)cc1 | 2.2% | -0.19 | i
CCOc1ccc(-c2n[nH]c(C)c2Oc2ccccc2OC)c(O)c1 | -1.9% | 0.84 | i
CCCCSc1nnc(-c2ccccc2N)c(=O)[nH]1 | -3.7% | -1 | i
CCOc1ccc(NC(=O)CN2CCN(C3c4ccccc4-c4ccccc43)CC2)cc1 | 0.3% | / | i
COc1ccc(Nc2oc(-c3ccc(Cl)cc3)nc2C#N)cc1 | -1.6% | / | i
O=S(=O)(Nc1ccc2c(c1)OCCO2)c1cccs1 | -3.3% | -0.39 | i
C=CCn1c(SCC(=O)Nc2ccccc2C)nnc1-c1ccncc1 | 0.3% | 0.16 | i
CCN1CCN(c2ncc(C(=O)Nc3cc(Cl)c(OC)cc3OC)c3ccccc23)CC1 | -2.8% | 0.68 | i
CC1=NOC(=O)/C1=C\c1ccc(-c2cc(Cl)ccc2Cl)o1 | -1.3% | / | i
COC(=O)CSc1nc2c(c(-c3ccco3)c1C#N)CCCC2 | -7.2% | 0.19 | i
O=C(Nc1ccc(N2CCOCC2)c(Cl)c1)c1cc2ccccc2o1 | -3.4% | / | i
Cc1ccc2cccc(SCC(=O)N3CCOCC3)c2n1 | 2.1% | 0.26 | i
CC1(c2ccccc2)NC(=O)N(CCN2C(=O)c3ccccc3C2=O)C1=O (stereo unspecified) | 5.2% | 0.11 | i
Cn1c(Cc2ccccc2)nnc1SCC(=O)Nc1ccccc1N1CCOCC1 | -3.8% | -0.53 | i
Cn1c(=O)c2ccccc2n(Cc2ccccc2F)c1=O | 0.6% | -0.48 | i
COc1ccc(S(=O)(=O)Oc2ccc3c(c2)O/C(=C\c2cccnc2)C3=O)cc1 | -3.2% | / | i
CC(=O)Nc1ccc(S(=O)(=O)N2CCN(CC(=O)NC3CCCC3)CC2)cc1 | 6.9% | 1 | i
Cc1cc(C)c2cc(CN(CC3CCCO3)C(=O)NC3CCCCC3)c(=O)[nH]c2c1 (stereo unspecified) | 5.6% | 0.98 | i
CS(=O)(=O)Nc1ccc2c(c1)nc1n2CCOC1 | -3.5% | -0.48 | i
O=C(COc1ccc(Br)cc1)N1CCCCCC1 | -0.4% | 0.4 | i
O=C(Nc1ccc(Cl)cc1)Nc1ccc(N2CCOCC2)cc1 | -2.5% | 1.3 | i
N#CCN1CCN(CC(=O)Nc2ccc(OCc3ccccc3)cc2)CC1 | -3.3% | / | i
O=P(O)(O)c1ccccc1OCCCCCOc1ccccc1P(=O)(O)O | -3.9% | -0.26 | i
CCOC(=O)C1C(C#N)=C(N)OC(C)=C1c1ccncc1 (stereo unspecified) | 3.3% | -0.08 | i
COc1cc(C2CC(=O)NC3=C2C(=O)CC(C)(C)C3)ccc1O (stereo unspecified) | -5.2% | -0.64 | i
Brc1ccc(C2=Nn3c(nnc3-c3cccnc3)SC2)s1 | 3.7% | -1.2 | i
CCOC(=O)N1CCC(NC(=O)CN2C(=O)CCSc3ccccc32)CC1 | 2.0% | -0.51 | i
COCCCn1c(=N)c(C(=O)NCC2CCCO2)cc2c(=O)n3cccc(C)c3nc21 (stereo unspecified) | 4.7% | 6.9 | i
Cc1onc(-c2c(Cl)cccc2Cl)c1C(=O)Nc1ccc2c(c1)OCCO2 | 3.1% | 2.2 | i
CCCCCC(C)n1[nH]c(=O)c2c(C)cc(C)nc21 (stereo unspecified) | 2.5% | -2.6 | i
O=C(CCCn1c(=O)c2sccc2n(Cc2ccc(F)cc2)c1=O)NCc1ccco1 | -1.1% | 0.45 | i
O=C(NCc1ccc2c(c1)OCO2)c1ccc(CN2CCc3ccccc3C2)cc1 | -1.8% | / | i
CCOC(=O)CCCCC(=O)c1[nH]c(=O)[nH]c1CSc1nc(-c2ccccc2)c(C#N)c(=O)[nH]1 | -1.7% | -0.6 | i
CCOC(=O)C1/C(=N\O)CC(C)(O)C(C(=O)OCC)C1c1ccc(OC)c(OC)c1 (stereo unspecified) | 5.2% | 0.28 | i
COc1ccc(-c2nnc(SCC(=O)OC3CCCCC3)o2)cc1OC | 2.5% | -0.05 | i
Cc1ccccc1C(=O)N1CCC(C(=O)Nc2ccc3c(c2)OCCO3)CC1 | 0.7% | / | i
CCC1c2ccc(C)n2CCN1C(=O)Nc1ccccc1C(=O)OC (stereo unspecified) | 0.1% | 1.1 | i
Cc1ccccc1-n1c(C)nnc1SCC(=O)NCC1CCCO1 (stereo unspecified) | 6.0% | -0.32 | i
Cc1nn2c(N3CCCC3)cc(C(C)C)nc2c1-c1ccccc1 | -4.3% | -1.2 | i
CCOc1cccc(NC(=O)CC#N)c1 | -1.3% | -0.16 | i
CCOC(=O)N1CCC(N2Cc3cccc(C(=O)NCc4ccc(C)cc4)c3C2=O)CC1 | 4.1% | 0.54 | i
Clc1ccc(Cc2nnc(-c3ccccc3Br)o2)cc1 | -3.7% | 0.52 | i
N#Cc1ccc(Sc2nc3ccccc3[nH]2)cc1C#N | -2.1% | -0.95 | i
O=C(Cn1nnc(-c2ccccc2)n1)NCc1ccc2c(c1)OCO2 | -6.0% | -0.11 | i
COC(=O)C1=C(C)NC(=O)C1(Nc1nccs1)C(F)(F)F (stereo unspecified) | -3.2% | 0.04 | i
CCCCNC(=O)CSc1nc2ccccc2c(=O)n1C1CCCC1 | 0.0% | -1.5 | i

# Pulled by compound from the entries so far, 4 records:
smiles | Hsc70 | WNV protease inh | MT1-MMP reporter
CCC1c2ccc(C)n2CCN1C(=O)Nc1ccccc1C(=O)OC (stereo unspecified) | 0.1% | 1.1 | i
N#Cc1ccc(Sc2nc3ccccc3[nH]2)cc1C#N | -2.1% | -0.95 | i
CCCCNC(=O)CSc1nc2ccccc2c(=O)n1C1CCCC1 | 0.0% | -1.5 | i
CCOC(=O)N1CCC(N2Cc3cccc(C(=O)NCc4ccc(C)cc4)c3C2=O)CC1 | 4.1% | 0.54 | i

# Remaining list, next part
smiles | Hsc70 | WNV protease inh | MT1-MMP reporter
CN(C)c1ccc(-c2nnc(-c3ccc(S(=O)(=O)C(F)F)cc3)o2)cc1 | -49% | 0.04 | i
CCC(CO)Nc1ncnc2c1cnn2-c1ccc(Cl)cc1 (stereo unspecified) | 6.3% | -1.2 | i
CCOc1ccccc1OCC(=O)Nc1nnc(COC)s1 | 3.5% | 0.14 | i
Cc1cc(=O)n2nc(N3CCC(C(=O)NCc4cccnc4)CC3)sc2n1 | -3.0% | -1.1 | i
O=C(OCC(=O)N1CCOCC1)c1ccccc1SCC(=O)N1CCCC1 | 4.4% | -0.19 | i
CC(=O)c1c(N2CCCCC2)nc(=O)n(-c2ccccc2)c1C | -2.1% | -0.01 | i
CCOCCCNC(=O)c1ccccc1SCC | -0.3% | -2.2 | i
O=C(Cn1cnc2ccccc2c1=O)N1CCN(c2ccccc2)CC1 | -3.7% | / | i
COc1ccc2c(c1)-c1nc(NC(=O)c3ccco3)sc1CC2 | -5.9% | -0.61 | i
O=C(C(c1ccccc1)N1CCOCC1)N1CCOCC1 (stereo unspecified) | -1.5% | 0.26 | i
COC(=O)C1=C(N)c2c(F)cccc2C1(C#N)c1ccc(F)cc1 (stereo unspecified) | 0.8% | / | i
Cc1ccccc1OCc1nnc(SCC(=O)Nc2ccc3c(c2)OCO3)n1C | 3.8% | 0.21 | i
NC(=O)Cn1c(=O)n(Cc2ccco2)c(=O)c2c3c(sc21)CCCCC3 | 2.5% | / | i
COc1cc(C2N(c3cc(C)on3)C(=O)C3CCCN32)cc(OC)c1OC (stereo unspecified) | -4.6% | -0.14 | i
Cc1nc(SCC(=O)Nc2ccnc3ccccc23)n[nH]1 | -0.4% | -0.14 | i
Clc1ccc(C2=Nn3c(nnc3-c3cccnc3)SC2)s1 | -1.0% | -0.25 | i
